# Screening data (PubChem BioAssay)
# Rango dissoc inh: qHTS Assay for Inhibitors of RanGTP induced Rango (Ran-regulated importin-beta cargo) - Importin beta complex dissociation. Potency, µM (series often up to 46.1 µM), inactives show top-dose activity change, negative = inhibition. AID 540253, 2011. 340,000 compounds, 0.071% hits. Biochemical FRET Rango-importin beta, RanGTP-induced dissociation. Snurportin-1 (Homo sapiens) + GTP-binding nuclear protein Ran (Homo sapiens) + Importin …; active means falling FRET ratio curve, often poorly fitted, with flat reads before Ran was added; inconclusive means other falling curves, or compound fluorescence or quenching; inactive means flat or rising ratio curve;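 further: potency means the concentration at half of the fitted maximal effect; % of control where 0% means no effect; nearly all actives have a fitted effect of over 45% in size; -100% = wells without RanGTP and RCC1; the record marks most hits as doubtful in a second field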
#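 Quantitative HTS using a FRET biosensor: 0.1 uM Rango, 0.25 uM importin beta, 0.6 uM Ran, 2 mM GTP, 0.2 uM RCC1 final, PBS with DTT, Tween-20 and BSA. Post-read taken 45 min after Ran addition.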
# miR-21 reporter: qHTS Assay for Modulators of miRNAs and/orActivators of miR-21 | Potency, µM (doses to about 38.3 µM), for inactives: top-dose reporter change, positive = more light | HeLa miR-21 FLuc reporter, luciferase, 48 h | 340,000 tested, under 10 active; active = well fitted rising curve with a large enough effect; inconclusive = small, poorly fitted or top-dose-only effect; inactive = no such curve, though single readings can be large or run the other way;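 further: % of control where 0% means no effect; miR-21 action dims this reporter so a rising signal means less miR-21 action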
#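 HeLa miR-21-FLuc reporter line, endogenous miR-21; 2000 cells/well in DMEM/10% FBS; compound titration up to ~40uM final, 48 h, 37 degree Celsius; luciferase detection reagent, 15 min lysis, CCD luminescence.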
# Rango-impB inh: qHTS Assay for Inhibitors of Rango (Ran-regulated importin-beta cargo) - Importin beta complex formation; Importin subunit beta-1 (Homo sapiens), Q14974; Rango CFP/YFP FRET sensor + importin beta, 45 min; Potency, µM (top dose mostly 92.2 µM), without a hit: at the highest dose inhibition of complex formation; 340,000 compounds, 0.031% hits; AID 540263, 2011; active = rising FRET ratio curve, often small or poorly fitted; inconclusive = mostly compound fluorescence or quenching in the first reads; inactive = flat curves in all reads;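 further: potency means the concentration at half of the fitted maximal effect; 0% = DMSO wells and 100% = buffer wells lacking importin beta; nearly all actives have a fitted effect of over 15% in size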
# Target sequence (Q14974 whole entry, looked up): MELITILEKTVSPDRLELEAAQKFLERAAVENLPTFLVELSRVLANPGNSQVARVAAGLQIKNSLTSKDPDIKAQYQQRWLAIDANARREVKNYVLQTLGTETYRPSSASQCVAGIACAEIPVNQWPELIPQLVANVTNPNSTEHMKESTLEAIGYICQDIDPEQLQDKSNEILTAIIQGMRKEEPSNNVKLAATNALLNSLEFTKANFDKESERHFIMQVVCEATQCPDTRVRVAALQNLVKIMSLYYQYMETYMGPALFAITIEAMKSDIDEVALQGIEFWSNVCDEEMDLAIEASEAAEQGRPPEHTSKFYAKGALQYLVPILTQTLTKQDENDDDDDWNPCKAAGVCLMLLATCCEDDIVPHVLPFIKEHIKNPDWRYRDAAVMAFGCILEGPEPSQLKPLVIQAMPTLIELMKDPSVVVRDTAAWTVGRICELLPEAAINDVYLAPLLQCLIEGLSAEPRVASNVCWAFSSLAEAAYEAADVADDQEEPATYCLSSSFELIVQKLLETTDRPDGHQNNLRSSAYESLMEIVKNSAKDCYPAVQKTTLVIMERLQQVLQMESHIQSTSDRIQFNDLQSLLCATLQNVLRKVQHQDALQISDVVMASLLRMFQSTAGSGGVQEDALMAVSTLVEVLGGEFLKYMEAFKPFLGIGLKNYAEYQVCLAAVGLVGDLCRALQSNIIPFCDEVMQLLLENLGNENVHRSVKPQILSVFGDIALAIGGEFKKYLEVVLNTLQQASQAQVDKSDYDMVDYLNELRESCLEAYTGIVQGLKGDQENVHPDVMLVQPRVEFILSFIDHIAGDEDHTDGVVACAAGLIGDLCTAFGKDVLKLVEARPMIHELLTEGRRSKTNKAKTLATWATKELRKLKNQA
#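 FRET biosensor Rango (snurportin 1 IBB between N-terminal EYFP and C-terminal Cerulean), 50 nM in PBS/1 mM DTT/0.02% Tween-20/0.1% BSA, preincubated 5 min RT with compound; 0.125 microM importin beta added, 45 min RT, CFP/YFP FRET ratio read.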
# GLA inh pH 4.5: qHTS Assay for Inhibitors of Human alpha-Galactosidase at pH 4.5; Alpha-galactosidase A (Homo sapiens), P06280; purified enzyme, 4-MU-alpha-Gal fluorescence, pH 4.5; activity change, negative = inhibition, % at 105 µM; 230,000 tested, under 10 active; AID 1467, 2008; inconclusive = small, poorly fitted or top-dose-only inhibition, or a rising curve; inactive = flat fitted curve, though single readings scatter; no compound was filed as active;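 further: 0% = full activity with enzyme and -100% = basal without enzyme; dose as in the result columns while the protocol names 77 µM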
# * = called active by the depositor; ? = inconclusive; . = not tested or not shown; & = joins results of further samples; [ ] = another dose, or the depositor's remark. Some of the compounds tested; the hit share may differ from the screen's.
mol	Rango dissoc inh	miR-21 reporter	Rango-impB inh	GLA inh pH 4.5
CC1CCCCN1C(=O)c1cccc(NC(=O)c2ccccc2)c1 (centres undefined)	11%	-14%	-1.4%	2
O=C(NCC1CC1)c1ccc(Nc2nc3ccc(Br)cc3[nH]2)cc1	2%	6%	3.7%	-3
O=C(Nc1cc(C(F)(F)F)ccc1N1CCOCC1)c1cccnc1Cl	0%	-4%	3.7%	-19
O=C(NC1CCCC1)C1CCC(=O)N1C1CCCC1 (centres undefined)	-5%	-5%	3.3%	3
COc1ccc(CNS(=O)(=O)c2cc3c(cc2C)N(C)CCO3)cc1	-6%	19%&-9%	3.4%	.
COc1ccccc1/C=N/NC(=O)c1nnn(-c2nonc2N)c1CSC1=NCCS1	1%	-8%	0.2%	-4
O=C(COC(=O)c1ccc(O)cc1)Nc1cccc(S(=O)(=O)N2CCCCC2)c1	-10%	6%	-3.8%	-15
COc1cccc(NC(=O)c2nn(C)c(C(=O)Nc3cccc(OC)c3)c2[N+](=O)[O-])c1	-21%	0%	1.2%	.
Cc1ccccc1CNC(=O)C(=O)Nc1nccs1	-9%	-1%	-0.1%	5
O=C(NCCCCc1ccccc1)c1ccccc1Cl	2%	-19%	0.9%	-2
CC(=O)N1C(=O)NC2=C(C(=O)CCC2)C1c1cccc([N+](=O)[O-])c1 (centres undefined)	-14%	1%	-1.9%	.
O=C(O)c1nnsc1-c1csnn1	15%	.	0.1%	.
Cc1ccccc1OCC(=O)Nc1ccccc1NC(=O)c1ccco1	4%	-4%	-4.1%	.
O=C(CNC(=O)c1ccccc1Cl)N/N=C/C=C/c1ccccc1	-3%	-16%	2.7%	8
CC1=C(C(=O)OCC2CCCO2)C(c2coc3ccccc3c2=O)C2=C(CC(C)(C)CC2=O)N1 (centres undefined)	-2%	1%	-2.6%	-2[21.1 µM]
C=CCN(CC=C)C(=O)c1cccc(OC2CCN(S(=O)(=O)N(C)C)CC2)c1	-4%	8%	-2.5%	.
Cc1ccc(S(=O)(=O)CC(=O)Nc2ccc(F)c(F)c2F)cc1	20%	0%	-3.6%	5
O=C(CC1C(=O)NCCN1C(=O)Nc1ccccc1)Nc1ccc2c(c1)OCO2 (centres undefined)	6%	-5%	-6.6%	6
Cn1c(=O)c2[nH]c(CCCCc3nc4ccccc4[nH]3)nc2n(C)c1=O	4%	.	-2.2%	.
COc1ccc2c(c1)CC/C(=C\c1ccc(OC)c(Cn3nc(C)cc3C)c1)C2=O	1%	30%	-0.2%	-1
BrCCOCCOc1ccc2ccccc2c1	18%	-62%	0.4%	1
O=C(CN1CCN(c2ccc(F)cc2)CC1)Nc1ccc(F)c(F)c1	6%	0%	-1.5%	1
CC(=O)Nc1ccc(Br)cc1C(=O)C(=O)O	-2%	1%	-0.1%	-3
CC(=O)Nc1ccc(OCC(=O)NCc2ccc3c(c2)OCO3)cc1	-14%	-6%	5.2%	3
COc1ccc(C#Cc2ccc3c(c2)c(=O)c2ccccc2n3C)cc1	?	-10%	?	.
Cc1ccccc1OCC(=O)N(Cc1ccco1)c1c(N)n(Cc2ccccc2)c(=O)[nH]c1=O	?	.	-3.4%	.
CC1(C)Cc2ccccc2-c2nc3ccccc3c(=O)n21	13%	3%	0.1%	5
O=S(=O)(Nc1nc(-c2sccc2Cl)cs1)c1cc(Cl)ccc1Cl	9%	1%	3.5%	4
CC1(C)CC(=O)C=C(NC2CC(C)(C)NC(C)(C)C2)C1	-21%	-4%	-3.6%	6
CCN(c1ccccc1)S(=O)(=O)c1ccc(OC)c(NS(=O)(=O)c2cccs2)c1	-15%	3%	-6.7%	-3
CC1CCc2sc(C(=O)N=Nc3c(O)[nH]c4ccccc34)cc2C1 (centres undefined)	.	-12%	.	5
Nc1ccc2nc3c(c(Cl)c2c1)CCCC3	-19%	6%	2.2%	13
COCCNC(=O)CSc1nc2cc(OC)c(OC)cc2c(=O)n1CCC1=CCCCC1	-17%	-8%	0.1%	3
Cc1ccn2cc(CCNC(=O)COc3ccccc3)nc2c1	-11%	-8%	-2.1%	-24
CCc1ccc(N2C(=O)CN(CC(=O)OC)C2=S)cc1	-18%	1%	-3.4%	-3
COC(=O)c1ccccc1-c1ccc(/C=N/NC(N)=O)o1	-10%	-16%	-1.4%	-11
Cc1ccc(S(=O)(=O)N2CCC(C(=O)OCC(=O)N3CCc4ccccc43)CC2)cc1	18%	-1%	2.8%	-7
Cn1c(=O)c2c(SCc3c(F)cccc3Cl)nc(CC(C)(C)C)nc2n(C)c1=O	19%	-2%	0.3%	5
COc1cccc(OC)c1C(=O)OCC(=O)NCc1ccco1	11%	.	-1.9%	.
O=C(CNC(=O)C1COc2ccccc2O1)N/N=C\c1cccc(O)c1 (centres undefined)	-2%	-1%	1.2%	-5
CN(C(=O)c1ccc(OC2CCN(Cc3ccccn3)CC2)cc1)C1CCCCC1	1%	-12%	-0.3%	.
Cc1ccc(/C=N/NC(=O)c2ccc(NC(=O)c3ccccc3Cl)cc2)o1	23%	1%	0.8%	.
CCOC(=O)C1(C)C=C(Nc2ccccc2)C(=O)N1c1ccccc1 (centres undefined)	-4%	-1%	3.1%	5
c1ccc(-c2nnnn2-c2ccccc2)cc1	0%	0%	2.4%	.
N#Cc1ccc(OCC(=O)OCC(=O)Nc2ccc(N3CCOCC3)cc2)cc1	-1%	.	0.0%	.
CC(=O)N1CCCc2ccc(NS(=O)(=O)c3ccc(C)cc3)cc21	1%	.	-3.7%	.
COc1ccc(OCC(=O)NN2Cc3ccccc3C2=N)cc1	-3%	-1%	0.1%	3
S=C(Nc1ccc(Cl)cc1)N(CCCN1CCOCC1)Cc1ccco1	0%	-10%	2.3%	9
O=C(NCCN1CCCCCC1)C1CC(=O)N(CCc2ccccc2)C1 (centres undefined)	-10%	2%	-0.5%	6
CCCCC1CCC(C(=O)Nc2ccc(S(=O)(=O)Nc3nccs3)cc2)CC1 (centres undefined)	4%	2%	-0.2%	-1

# (continued)
mol	Rango dissoc inh	miR-21 reporter	Rango-impB inh	GLA inh pH 4.5
Cc1ccn2c(C(=O)N/N=C\c3cccs3)c(C)nc2c1	-3%	-21%	0.1%	-13
O=[N+]([O-])c1ccc(N/N=C2\CC3CC=CC23)cc1 (centres undefined)	?	0%	?	-2
CCCCc1nc(SCC(=O)Nc2ncccn2)n[nH]1	13%	-4%	5.2%	-26
Cc1cc(C)c2c(N)c(C(=O)Nc3ccccc3Br)sc2n1	?	-34%	?	.
Cc1ccc(C)c(OCCn2cc(C(=O)O)c3ccccc32)c1	0%	-9%	-0.6%	-1
Cc1cc(C)nc(Nc2n[nH]c(Cc3ccccc3)n2)n1	.	-2%	.	2
COc1ccc(NS(=O)(=O)c2ccc(N3CCOCC3)c(NC(=O)/C=C/C(=O)O)c2)cc1	-3%	.	-0.2%	.
COc1ccccc1Cn1cnc2cccnc21	14%	-2%	-6.2%	-3
COc1ccc(-c2noc(-c3cc(Cl)ccc3Cl)n2)cc1OC	.	-3%	.	4
O=C(O)C(Oc1ccc2ccccc2c1)c1ccccc1 (centres undefined)	-10%	.	-1.6%	.
Cc1ccc(S(=O)(=O)N2CCN(S(C)(=O)=O)CC2)cc1	4%	.	-3.6%	.
COc1ccc(CCNC(=O)Cn2c(=O)n(CC3CCCO3)c(=O)c3cc(OC)c(OC)cc32)cc1OC (centres undefined)	-11%	9%	1.6%	5
COc1ccccc1CNC(=O)CC(C)C	16%	0%	?	6
CSc1ncccc1C(=O)OCC(=O)N1CCOCC1	?	-5%	1.6%	-9
CC(C)N(C(=O)CSc1nnc(NC2CC2)s1)c1ccccc1	-2%	.	0.1%	.
COc1ccc(CC(=O)Nc2ccc(C(=O)O)cc2NC(=O)Cc2ccc(OC)cc2)cc1	-8%	4%	0.1%	10
COc1ccccc1CNC(=O)CSc1nc(=O)n(Cc2ccncc2)c2c1CCC2	29%	.	-1.5%	.
CC1(C)CC(=O)C2=C(C1)Nc1ccccc1NC2c1ccc(F)c(F)c1 (centres undefined)	52%	9%	-1.8%	.
CCCOc1ccc(N2CC(C(=O)Nc3ncccc3C)CC2=O)cc1 (centres undefined)	1%	4%	0.3%	1
COC(=O)c1cccc(C(=O)Oc2cccc(Br)c2)n1	2%	-2%	2.1%	1
CC1(C)CC(=O)c2cnc(N3CCc4ccccc43)nc2C1	7%	-79%	3.1%	4
CC(C)(C)c1cc(OC(=O)c2ccncc2)ccc1O	-3%	-12%	2.4%	7
O=C(Nc1ccccc1C(F)(F)F)c1ccccn1	6%	-5%	-3.0%	4
Cc1ccc(N2CC(C(=O)NCCS(=O)(=O)N3CCN(c4ccccc4)CC3)CC2=O)cc1 (centres undefined)	1%	-2%&4%	1.1%	.
CCSc1nc(N2CCCCC2)c2c(c1C#N)CCCC2	6%	0%	-0.6%	4

# Part of the list above, with two lines to a compound:
# Values run as follows: Rango dissoc inh | miR-21 reporter | Rango-impB inh | GLA inh pH 4.5
- CC1(C)CC(=O)c2cnc(N3CCc4ccccc43)nc2C1
 : 7% | -79% | 3.1% | 4
- CC(C)(C)c1cc(OC(=O)c2ccncc2)ccc1O
 : -3% | -12% | 2.4% | 7

# Profiles from above. Values in the order: Rango dissoc inh	miR-21 reporter	Rango-impB inh	GLA inh pH 4.5
# `Cc1ccc(S(=O)(=O)N2CCN(S(C)(=O)=O)CC2)cc1` in the list: 4%	.	-3.6%	.
# `COc1ccc(C#Cc2ccc3c(c2)c(=O)c2ccccc2n3C)cc1` in the list: ?	-10%	?	.
# `CC1(C)CC(=O)C2=C(C1)Nc1ccccc1NC2c1ccc(F)c(F)c1` (centres undefined) in the list: 52%	9%	-1.8%	.
# `CC1(C)CC(=O)C=C(NC2CC(C)(C)NC(C)(C)C2)C1` in the list: -21%	-4%	-3.6%	6
# `CCc1ccc(N2C(=O)CN(CC(=O)OC)C2=S)cc1` in the list: -18%	1%	-3.4%	-3

# Remaining list, next part:
mol	Rango dissoc inh	miR-21 reporter	Rango-impB inh	GLA inh pH 4.5
COc1cc(/C=N/NC(=O)c2ccc(CSc3nncn3C)cc2)ccc1OCC(=O)N1CC(C)OC(C)C1 (centres undefined)	-6%	0%	0.8%	-13
CC(C(=O)NC1C=CS(=O)(=O)C1)N1C(=O)/C(=C/c2ccc(Cl)cc2)SC1=S (centres undefined)	-4%	0%	-0.3%	.
CCN1C(=O)c2cccc3c(NC(=O)c4ccc5c(c4)OCCO5)ccc1c23	10%	-11%	?	-1
Cc1csc(N2CCCC2c2nc3cc(Cl)c(N4CCCCC4)cc3n2CCOCCO)n1 (centres undefined)	-6%	.	-0.7%	.
O=C(N/N=C/c1cccc(O)c1)c1ccc2c(c1)OCCO2	22%	14%	-1.4%	.
Cc1ccc(C)n1-c1nnc(N2CCC(C(=O)NCCCN3CC(C)CC(C)C3)CC2)s1 (centres undefined)	-2%	2%	0.2%	.
CC(C)(C)c1ccc(C(=O)NC(=O)COC(=O)CCS(=O)(=O)c2ccccc2)cc1	6%	.	-4.8%	.
Cc1ccc(C(=O)NCCc2nnc3ccc(SCC(=O)Nc4ccc(C)cc4C)nn23)cc1	-7%	-1%	-0.9%	-3
